Yeast life ext: compounds extending yeast replicative lifespan, primary screen, S. cerevisiae, OD615; AID 775, 2007; 0.68% of 130,000 active; inhibition of the nicotinamide effect, % at 10 µM; S. cerevisiae growth with nicotinamide; deaD strain in restrictive glucose medium;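 active = inhibition above a set limit, placed 3 SD over the median of all compounds, cut at about 26% in these data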;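 note: 0% = nicotinamide-treated wells and 100% = cells grown without nicotinamide; some compounds called inactive have numbers as strong as hits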
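Measured by: optical density (absorbance) at 615 nm; System: modified budding yeast, DeaD strain; Medium: restrictive CSMM-D dextrose medium; Timing: 4 h preincubation then 48 h treatment at 30 °C.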
Measles CPE: compounds protecting cells from measles virus cytopathic effect, primary screen, measles RdRp inhibitor project, single point, MLSMR library, absorbance. 1.5% of 140,000 active. Measles virus-infected cells, CPE protection. protection (pct of control), % at 4 µM; in the data active = protection mostly above about 24%, no sharp cut-off; inactive = mostly below about 26%; note: some compounds called inactive have numbers as strong as hits
Phagocyt inh: inhibitors of macrophage phagocytosis, primary screen, imaging, J774A.1 cells, IgG beads. J774A.1 macrophage IgG-bead phagocytosis. inhibition, % at 5 µM. 0.07% of 110,000 active. AID 1029, 2008;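 active = inhibition above the mean of the plate negative controls plus 5 SD, cut at about 13% in these data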;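 note: phagocytic index as fraction of beads internalized from green versus red external bead signal; plate controls were DMSO negative control for no effect and cytochalasin-D positive control for full effect; some results beyond the cut were filed as inactive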
E-sel TNF inh: E-selectin induction blockers in HUVEC – imaging, immunofluorescence, high content, primary screen | HUVEC TNFa-induced E-selectin immunofluorescence | inhibition, % at 2 µM | 0.71% of 120,000 active | AID 1246, 2008;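 active = inhibition above the batch mean plus 3 SD, and confirmed as a hit on visual image review, cut at about 43% in these data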;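 note: 0% = TNF-stimulated DMSO wells and 100% = unstimulated control wells; not every result past the cut was called active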
MRP-1 activ: H69AR viability gain despite doxorubicin, primary screen, MRP-1 activator project, H69AR cells, CellTiter-Glo | viability rescue | viability increase, % at 10 µM | 0.61% of 140,000 active;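 active = viability gain under doxorubicin at or above a set limit, the compound median plus 3 SD, cut at about 4.7% in these data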;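 note: MRP-1 overexpressing cells given doxorubicin 25 µM after compound pretreatment; 18-22 h compound pretreatment then 72 h with doxorubicin before readout; 0% = doxorubicin-only wells and 100% = vehicle-treated cells without doxorubicin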
Yeast growth inh: growth inhibitors of yeast BB579 in restrictive medium, primary screen, yeast lifespan-shortening project, S. cerevisiae; AID 804, 2007; OD615, 48 h; 0.51% of 140,000 active; inhibition, % at 10 µM;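 active = inhibition above a set limit, 3 SD over the mean compound inhibition, cut at about 44% in these data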; note: inactives centre near -24
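Assay system: S. cerevisiae DeaD strain BB579 yeast. Medium: CSMM-D restrictive synthetic medium containing dextrose (glucose). Times: 4 h cell preincubation, 48 h compound exposure, 30 °C humidified. Signal: OD615 turbidity measurement. Benchmarks: positive control amphotericin B 10 µg/mL.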
GALR2 antag: GALR2 antagonists in receptor-expressing cells, primary screen. 0.39% of 140,000 active. AID 828, 2007. inhibition, % at 4 µM. antagonist mode. Galanin receptor type 2 (Homo sapiens), O43603; in the data active = inhibition above about 27%;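 note: cells stimulated with galanin 1-16 at roughly its EC80; 0% = agonist challenge control and 100% = basal control without agonist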
Target sequence (O43603 whole entry, looked up): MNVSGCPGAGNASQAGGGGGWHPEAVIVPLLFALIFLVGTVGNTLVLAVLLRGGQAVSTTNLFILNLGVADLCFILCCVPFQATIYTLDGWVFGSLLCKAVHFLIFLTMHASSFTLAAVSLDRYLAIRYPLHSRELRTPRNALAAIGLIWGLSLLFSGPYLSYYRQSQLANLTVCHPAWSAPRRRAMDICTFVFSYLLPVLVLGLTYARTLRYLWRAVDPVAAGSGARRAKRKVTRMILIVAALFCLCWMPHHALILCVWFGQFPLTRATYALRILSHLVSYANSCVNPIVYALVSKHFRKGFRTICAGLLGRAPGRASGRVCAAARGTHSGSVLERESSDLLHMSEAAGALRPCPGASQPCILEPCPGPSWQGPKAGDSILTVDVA
Active calls of the source: *; . = no result given; & = joins results of further samples. Not all compounds are listed; the hit share may differ from the screen's.

smiles	Yeast life ext	Measles CPE	Phagocyt inh	E-sel TNF inh	MRP-1 activ	Yeast growth inh	GALR2 antag
COc1ccccc1NC(=O)Cn1c(=O)n(CCc2c[nH]c3ccccc23)c(=O)c2cccnc21	3.3	13.1	.	19.3	-1.7	-31.8	5.4
CC(C)(C)c1ccc(C(O)CCCN2CCC(C(O)(c3ccccc3)c3ccccc3)CC2)cc1 (stereo unspecified)	5.6	8.4	.	.	-3.3	-14.2	2.8
O=C(CNC(=O)c1ccccc1)N/N=C/c1ccc([N+](=O)[O-])o1	-0.8	34.4	-6.3	.	-3.1	-37.0	5.3
CCOc1ccc2nnnn2n1	-8.2	6.4	-2.7	.	-0.6	-1.6	8.8
COc1cc(/C=C/C(=O)CC(=O)/C=C/c2ccc(O)c(OC)c2)ccc1O	-1.4	18.1	.	.	-3.3	-6.4	19.6
CC(C)(C)NC(=O)/C=C/c1ccc(C(F)(F)F)cc1	1.4	10.8	-2.1	-12.3	-0.7	-9.7	-1.8
CC(C)OC(=O)C(C)(C)Oc1ccc(C(=O)c2ccc(Cl)cc2)cc1	6.1	2.4	.	-13.2	1.9	-13.9	4.2
Cc1ncc(CC(=O)n2cc(C(=O)c3cc(F)ccc3O)cn2)s1	-6.8	8.4	.	-8.6	0.5	37.8	9.8
CC(C)OC(=O)Cn1c(=O)sc2ccccc21	-7.9	8.4	-1.4	5.7	-1.1	-15.8	8.2
COc1ccc2cc([C@H](C)C(=O)O)ccc2c1	13.5	4.2	.	.	-0.8	-11.1	-1.0
CCOC(=O)CSc1nc(-c2ccccc2)nc2ccccc12	-16.5	1.6	.	-47.5	-1.8	-49.4	-7.3
CCOc1ccc(NC(N)=O)cc1	-2.0	7.1	-0.6	.	-2.2	-14.0	-2.3

Three compounds from above, reduced to MRP-1 activ, Measles CPE and Yeast growth inh.
SMILES | MRP-1 activ | Measles CPE | Yeast growth inh
COc1cc(/C=C/C(=O)CC(=O)/C=C/c2ccc(O)c(OC)c2)ccc1O | -3.3 | 18.1 | -6.4
CC(C)(C)NC(=O)/C=C/c1ccc(C(F)(F)F)cc1 | -0.7 | 10.8 | -9.7
CC(C)OC(=O)C(C)(C)Oc1ccc(C(=O)c2ccc(Cl)cc2)cc1 | 1.9 | 2.4 | -13.9

Whole records, looked up by structure. Values in the order: Yeast life ext | Measles CPE | Phagocyt inh | E-sel TNF inh | MRP-1 activ | Yeast growth inh | GALR2 antag
Profile of CCOc1ccc2nnnn2n1 → -8.2 | 6.4 | -2.7 | . | -0.6 | -1.6 | 8.8
Profile of COc1cc(/C=C/C(=O)CC(=O)/C=C/c2ccc(O)c(OC)c2)ccc1O → -1.4 | 18.1 | . | . | -3.3 | -6.4 | 19.6

Grouped by structure, those above with a tert-butyl group.
smiles	Yeast life ext	Measles CPE	Phagocyt inh	E-sel TNF inh	MRP-1 activ	Yeast growth inh	GALR2 antag
CC(C)(C)c1ccc(C(O)CCCN2CCC(C(O)(c3ccccc3)c3ccccc3)CC2)cc1 (stereo unspecified)	5.6	8.4	.	.	-3.3	-14.2	2.8
CC(C)(C)NC(=O)/C=C/c1ccc(C(F)(F)F)cc1	1.4	10.8	-2.1	-12.3	-0.7	-9.7	-1.8

Carrying on.
smiles	Yeast life ext	Measles CPE	Phagocyt inh	E-sel TNF inh	MRP-1 activ	Yeast growth inh	GALR2 antag
COC(=O)C1=C(C)NC(C)=C(C(=O)OC)C1c1ccccc1[N+](=O)[O-]	1.1	4.1	.	-8.1	-5.1	-25.6	7.1
COc1ccc(CCN2CCC(Nc3nc4ccccc4n3Cc3ccc(F)cc3)CC2)cc1	6.8	-1.7	.	.	-4.1	-42.4	1.9
CN(C)CCCN1c2ccccc2Sc2ccc(Cl)cc21	1.9&-23.6	10.2&7.6	.	1.8	-3.8&-5.5	7.3&3.7	-6.4&5.7
Nc1nc2c(ncn2COCCO)c(=O)[nH]1	5.2	7.8	.	.	-1.8	-26.4	-5.5
CCN(CC)CCn1nc(C)nc1-c1ccccc1O	-13.3	11.4	2.2	-34.5	-0.1	-43.5	-3.4
O=C(NCc1cccnc1)C1c2ccccc2C(=O)N1Cc1ccccc1 (stereo unspecified)	1.3	12.7	0.9	.	-0.7	-15.2	8.4
O=c1n(CCCN2CCN(c3cccc(Cl)c3)CC2)nc2ccccn12	1.8	7.0	.	.	-1.8	-28.6	0.7
CN(C)CCOC(c1ccccc1)c1ccccc1 (tested in a mixture with another compound)	3.1	12.6	.	.	-0.8	-44.1	8.8
O=C(NCc1ccccc1)N[C@@H](Cc1c[nH]c2ccccc12)C(=O)O	-1.2	27.2	-0.6	6.0	0.3	-36.7	2.2
CC(C)(Sc1cc(C(C)(C)C)c(O)c(C(C)(C)C)c1)Sc1cc(C(C)(C)C)c(O)c(C(C)(C)C)c1	3.6	41.7	.	.	-0.8	-43.5	4.7
O=C(N/N=C/c1ccc(F)c(F)c1)c1cc2c(s1)-c1ccccc1CC2	-12.3	10.1	-0.1	-15.3	-1.3	-69.3	-3.0
CCCCOc1ccc(CN2CCC(O)CC2)cc1	15.8	4.8	.	.	-1.6	-42.0	-2.3
CSc1ccc2c(c1)N(CCC1CCCCN1C)c1ccccc1S2 (stereo unspecified)	8.4	7.8	.	.	-4.1	-25.7	18.4
CC(=O)N1CSCC1C(=O)N1CCN(c2ccc(N3CCOCC3)nn2)CC1 (stereo unspecified)	-5.5	6.9	-0.3	.	-1.1	6.5	-11.2

Assay outcomes deposited in PubChem BioAssay by several laboratories.
